# CtBP-E1A inh: inhibitors of CtBP/E1A interaction | hit rate 0.49% among 340,000 | activity change, % (no concentration beside the values) | AlphaScreen GST-E1A/His-CtBP binding, 1536-well; stronger effect = lower value; control for the full effect not named in the record | AID 651724; in the data active means activity change below about -65%; inconclusive means about -30% to -65%; inactive means above about -30%; also: % is scaled to controls: 0 for no effect and ±100 for the full control effect; compound concentration not given in the record
#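 In 5 uL wells, 23 nL compound meets equimolar GST-E1A and His-CtBP (5X stock 125 nM each) for 2 h, 37 °C. Beads (5X, 50 ug/mL) then 1 h, 37 °C, dark.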
# Six1-Eya2 inh: Six1/Eya2 interaction inhibition; AlphaScreen GST-Six1/His-Eya2 binding, biochemical; stronger effect = lower value; control for the full effect not named in the record; activity change, % (concentration not given with the values); hit rate 0.56% among 360,000; AID 651725; in the data active = activity change below about -65%; inconclusive = about -30% to -65%; inactive = above about -30%; also: % is scaled to controls: 0 for no effect and ±100 for the full control effect
#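 Homogeneous AlphaScreen proximity assay pairing GST-Six1 with His-tagged Eya2 (added as 5X mix: 250 nM and 500 nM) in 50 mM Tris pH 8.0, 300 mM NaCl, 1 mM TCEP. Glutathione donor and nickel acceptor beads; 1 h, 37 °C, dark.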
# D2 PAM: positive allosteric modulators of human D2 dopamine receptor. potentiation, % (test concentration not listed). DiscoveRx D2 beta-arrestin cells, luminescence, 90 min; 100% = 57 uM dopamine signal. P14416. AID 624464. hit rate 0.23% among 360,000; active = potentiation of 50% or more; inconclusive = 30% to 50%; inactive = 30% or less;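 also: compound concentration not given in the record; tested on top of an EC20 dose of dopamine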
# Target sequence (P14416 whole entry, looked up): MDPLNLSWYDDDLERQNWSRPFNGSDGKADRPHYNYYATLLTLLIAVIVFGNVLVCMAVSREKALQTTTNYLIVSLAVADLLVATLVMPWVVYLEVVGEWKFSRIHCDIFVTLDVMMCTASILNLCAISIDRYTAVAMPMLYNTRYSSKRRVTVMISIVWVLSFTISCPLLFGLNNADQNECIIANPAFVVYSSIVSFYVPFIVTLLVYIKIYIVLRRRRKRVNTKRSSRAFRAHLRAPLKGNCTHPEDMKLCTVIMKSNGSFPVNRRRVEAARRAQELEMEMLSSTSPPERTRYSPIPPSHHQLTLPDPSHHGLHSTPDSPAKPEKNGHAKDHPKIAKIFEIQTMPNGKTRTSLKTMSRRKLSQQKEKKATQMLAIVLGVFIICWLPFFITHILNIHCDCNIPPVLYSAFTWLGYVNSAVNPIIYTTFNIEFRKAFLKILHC
#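 PathHunter D2 cells, attached overnight at 37 deg C, received compound in DMSO plus dopamine at EC20 (50 nM final) for 90 min at 37 deg C. Beta-arrestin recruitment was read as luminescence after 1 h with detection reagent at ambient temperature.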
# TRPV1 PAM: enhances activation of the human vanilloid receptor TRPV1 | Q8NER1 | TRPV1-expressing cells, Fluo-8 calcium influx, capsaicin EC20 potentiation; host cell line not named in the record; control for the full effect not named in the record | potentiation, % at 8.33 µM | hit rate 0.02% among 320,000; active means potentiation above 80%; inconclusive means 30% to 80%; inactive means below 30%; also: 0% is about no effect
#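 TRPV1-expressing cells were cultured overnight at 35.5C and loaded with Fluo-8 calcium dye for 40 to 90 min at room temperature. After a 10 s baseline, compound was added and calcium influx was read kinetically for 3 min (ex 480/em 520 nm).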
# TRPML1 blocker: blocks the human TRPML1 channel | Q9GZU1 | TRPML1-inducible cells, Ca2+ dye fluorescence, FDSS; stronger effect = lower value; inhibition of EC80 agonist-evoked calcium signal | activity change, negative = inhibition, % (test concentration not listed) | hit rate 0.02% among 390,000; in the data active means activity change below about -50%; inconclusive means about -30% to -50%; inactive means above about -30%;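 also: stimulus is agonist 54-4 at its EC80 concentration; % is scaled to controls: 0 for no effect and ±100 for the full control effect; compound concentration not given in the record; the text of the record puts the active cut at -80%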
# Target sequence (Q9GZU1 whole entry, looked up): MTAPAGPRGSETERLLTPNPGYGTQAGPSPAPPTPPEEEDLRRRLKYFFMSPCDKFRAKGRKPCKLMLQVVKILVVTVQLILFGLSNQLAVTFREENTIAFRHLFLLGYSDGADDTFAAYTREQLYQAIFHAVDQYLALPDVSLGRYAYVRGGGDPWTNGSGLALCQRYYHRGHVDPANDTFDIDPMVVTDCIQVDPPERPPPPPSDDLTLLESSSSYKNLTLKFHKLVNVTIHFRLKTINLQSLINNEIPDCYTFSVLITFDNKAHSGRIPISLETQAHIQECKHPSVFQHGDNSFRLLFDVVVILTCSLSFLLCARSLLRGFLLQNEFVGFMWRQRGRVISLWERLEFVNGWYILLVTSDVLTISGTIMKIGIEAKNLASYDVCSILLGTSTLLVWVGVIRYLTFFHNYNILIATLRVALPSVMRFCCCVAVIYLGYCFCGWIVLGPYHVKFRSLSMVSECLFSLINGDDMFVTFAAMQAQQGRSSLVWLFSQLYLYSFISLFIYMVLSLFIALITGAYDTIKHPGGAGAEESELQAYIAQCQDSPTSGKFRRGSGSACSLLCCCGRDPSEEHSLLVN
#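 Calcium fluorescence in TRPML1-DL cells induced overnight with Tet: a 110 s read after compound pin addition, then a 110 s antagonist read after challenge with 54-4 at 4 uM final (EC80).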
# TRPML1 agonist: agonists of human TRPML1 channel; Q9GZU1; TRPML1-expressing cells, Ca2+ dye fluorescence, FDSS; host cell line not named in the record; reference of the full effect not given here; activation, % (test concentration not listed); hit rate 0.12% among 410,000; AID 624414; in the data active = activation above about 50%; inconclusive = about 30% to 50%; inactive = below about 30%; also: 0% is about no effect; the text of the record puts the active cut at 80%
#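 TRPML1-DL cells, Tet-induced overnight (~16 h, 37 degrees C), loaded 45-90 min at room temperature with Ca8 no-wash calcium dye plus quencher. FDSS fluorescence: 10 s baseline, compound pin-transfer, 110 s agonist read, then EC80 54-4 (4uM final) and 110 s antagonist read.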
# * marks the source's active call; other numbers are inactive results; ? = inconclusive; nt = no result given; & = joins results of further samples.
# Preview:
SMILES,CtBP-E1A inh,Six1-Eya2 inh,D2 PAM,TRPV1 PAM,TRPML1 blocker,TRPML1 agonist
COc1ccc(CC2(CO)CCN(Cc3cnc(-c4ccccc4C)nc3)CC2)cc1,nt,-4,-18,3,6,0.8
Cc1ccc(C)c(NC(=O)CN(C)C(=O)CN2C(=O)C3CCCCC3C2=O)c1 (stereo unspecified),5,1,-5,-2,-19,0.7
Cc1cccc(C)c1OCC(O)CN1CCc2ccccc2C1 (stereo unspecified),0,-11,-16,nt,-8,-0.9
CN(Cc1nc(Cc2cccc(F)c2)no1)CC1CCOCC1,0,-11,5,8,-17,-0.7
Cc1cc(C)cc(NC(=S)NCCc2ccc(S(N)(=O)=O)cc2)c1,-1,4,-22,4,3,2.1

# Results, from the first entry:
SMILES,CtBP-E1A inh,Six1-Eya2 inh,D2 PAM,TRPV1 PAM,TRPML1 blocker,TRPML1 agonist
COc1ccc(CC2(CO)CCN(Cc3cnc(-c4ccccc4C)nc3)CC2)cc1,nt,-4,-18,3,6,0.8
Cc1ccc(C)c(NC(=O)CN(C)C(=O)CN2C(=O)C3CCCCC3C2=O)c1 (stereo unspecified),5,1,-5,-2,-19,0.7
Cc1cccc(C)c1OCC(O)CN1CCc2ccccc2C1 (stereo unspecified),0,-11,-16,nt,-8,-0.9
CN(Cc1nc(Cc2cccc(F)c2)no1)CC1CCOCC1,0,-11,5,8,-17,-0.7
Cc1cc(C)cc(NC(=S)NCCc2ccc(S(N)(=O)=O)cc2)c1,-1,4,-22,4,3,2.1
COc1ccc(NC(=O)CSc2nc3ccccc3c(=O)n2CCNC(C)=O)c(OC)c1,8,1,-5,23,-13,-0.3
CC12CCC(C(=O)NNc3ccccc3)(OC1=O)C2(C)C (stereo unspecified),8,10,-1,2,-1,-0.5
CN(C)C(CNC(=S)Nc1ccc(Cl)cc1)c1cccnc1 (stereo unspecified),6,5,-5,-2,-15,0.0
CCC(NC(=O)C1CCC1)c1ccc(C)cc1 (stereo unspecified),0,-2,-8,4,-15,0.7
CCOC(=O)c1c(C)[nH]c(N=Nc2ccc(OC)cc2)c1C,?,-24,-8,-11,-5,1.1
CC1=C(C(=O)NC2CC(C)(C)Cc3c2cnn3-c2cccc(F)c2)OCCO1 (stereo unspecified),-3,-11,-6,3,-3,0.1
Cc1cccc(C)c1N1CCN(CCn2c(=S)[nH]c3ccccc3c2=O)CC1,-2,-2,-3,-7,3,1.0
CCCn1c(SCC(=O)OCc2ccccc2)nc2c1c(=O)n(C)c(=O)n2C,7,2,-7,23,-9,0.0
O=C(COC(=O)c1ccc(O)cc1O)NC1CCCCCC1,nt,5,-6,27,-6,-0.3
COc1cccc(OC)c1C(=O)Nc1nc2cc3c(cc2s1)OCO3,9,15,-6,-13,-10,-0.7
COc1cc(OC)cc(C(=O)N2CCN(C3CCCCC3)CC2)c1,1,0,-8,-6,13,0.3
COCCn1c(SCC(=O)c2cccc(OC)c2)nnc1-c1ccco1,-2,0,-6,13,-4,-0.3
CCCCCCOC(=O)CCc1c(C)nc(N)[nH]c1=O,-2,10,-20,1,23,0.3
CCOc1ncccc1C(=O)OCC(=O)Nc1cc(S(=O)(=O)N2CCOCC2)ccc1Cl,9,-1,-2,-3,-4,-0.3
CCOC(=O)C1CCCN(C(=O)CCNS(=O)(=O)c2ccc3c(c2)CCC(=O)N3)C1 (stereo unspecified),3,4,3,6,21,1.5
Nc1ccc(-c2nc3ncccc3o2)c(O)c1,-20,-2,-16,15,-16,1.6
O=C(N/N=C\c1ccc(COc2ccc([N+](=O)[O-])cc2)o1)c1ccc(Cl)cc1,-10,-10,-4,13,4,3.1
COc1ccc(CCOC(=O)c2ccc(N)c([N+](=O)[O-])c2)cc1,-11,-17,-10,3,-4,0.6
COc1ccc(N2CCN(C(=O)c3ccc(C)c(Cl)c3)CC2)cc1,-29,-27,-6,0,-1,1.3
CN1CCN(c2ccc(-c3cccc4nccn34)cn2)CC1,1,-1,-8,nt,-5,0.5
Cc1cc(C(=O)COC(=O)Cc2n[nH]c(=O)c3ccccc23)c(C)n1-c1ccc2c(c1)OCCO2,?,?,-13,-21,-3,1.2
Cc1noc(C)c1NC(=O)NCCN1CCN(Cc2ccccc2)CC1,10,1,8,nt,-17,0.4
O=[N+]([O-])c1ccc(NN=Cc2cccc([N+](=O)[O-])c2)cc1,0,1,-1,nt,-5,-0.6
CC(Sc1nnc(-c2ccccc2Br)n1-c1cccc(C(F)(F)F)c1)C(N)=O (stereo unspecified),8,2,3,-1,-2,0.2
Cc1cccc(NC(=S)NCC23C=CC(O2)C2C(=O)N(c4ccc(Cl)cc4)C(=O)C23)c1 (stereo unspecified),1,-2,-2,-12,-18,-0.1
COc1ccccc1NC(=O)Cn1nc(-c2ccncc2)nc1SCC(=O)NC1CCCC1,13,1,-22,7,-5,0.1
CCOC(=O)C1CCN(S(=O)(=O)c2cc(F)ccc2OC)CC1,5,-1,-2,-5,1,-0.1
Cc1oc(-c2ccc(Cl)cc2)nc1CN1CCCC(C(=O)NCc2ccco2)C1 (stereo unspecified),-13,-7,-13,-9,6,-0.1
COc1ccc(S(=O)(=O)N2CCOCC2)cc1C(=O)N1CCCC1,0,4,-5,3,-7,-0.4
COC(=O)[C@@]1(C(C)C)N=C(c2cc(OC)c(OC)c(OC)c2)[C@]2(O1)C(=O)Nc1ccc(F)cc12,3,0,nt,nt,nt,-0.1
O=S(=O)(c1ccccc1)N(CC1CO1)c1ccccc1 (stereo unspecified),9,7,-2,3,-9,-0.9
C=CCCC(=O)N1C[C@H]2CCN(C)[C@H]2C[C@H]1c1ccc(Br)cc1,5,9,-9,nt,nt,-0.2
COCC(=O)NNC(=O)c1ccccc1OC,2,4,-3,1,-1,-0.8
O=[N+]([O-])c1ccc(N2CCCCC2)c(Cl)c1N1CCCCC1,-16,-21,-6,-3,8,0.4
CCC(C)N(C(=O)Cn1cnc2c1c(=O)n(C)c(=O)n2C)C1CCS(=O)(=O)C1 (stereo unspecified),3,4,-17,?,-4,0.2
Cc1ccc(CCNC(=O)C2CC(c3ccccc3[N+](=O)[O-])=NO2)cc1 (stereo unspecified),3,-1,-47,18,9,-0.1
O=C(CSc1nnc2ccc(-c3ccccn3)nn12)Nc1ccc(F)cc1,4,-3,-8,nt,-5,-0.3
Cc1ccc(CSCC(=O)N2CCN(c3ccc(F)cc3)CC2)cc1,-6,-8,-4,-14,-26&13,-0.9&-0.6
COCCN(C(=S)Nc1cccc(OC)c1)C1CCN(C(C)C)CC1,-6,3,-27,-6,19,-0.5
COc1ccc(S(=O)(=O)N2CCOCC2)cc1NC(=O)CSc1nnc(C2CC2)n1C,nt,5,-4,nt,-14,0.3

# Arranged by value in Six1-Eya2 inh (rising): three of the compounds above.
molecule	Six1-Eya2 inh
CCOC(=O)C1CCN(S(=O)(=O)c2cc(F)ccc2OC)CC1	-1
COc1cc(OC)cc(C(=O)N2CCN(C3CCCCC3)CC2)c1	0
Cc1noc(C)c1NC(=O)NCCN1CCN(Cc2ccccc2)CC1	1

# (cont.)
SMILES,CtBP-E1A inh,Six1-Eya2 inh,D2 PAM,TRPV1 PAM,TRPML1 blocker,TRPML1 agonist
COc1ccc(N=CC2=C(O)CC(c3ccccc3)CC2=O)c(OC)c1 (stereo unspecified),3,7,-5,-6,-4,1.7
O=C(CSc1ccccc1F)NNC(=O)c1cncc(Br)c1,0,5,-1,nt,28,3.2
CC(=O)N1C(O)CC(C)N1c1ccccc1 (stereo unspecified),5,3,8,2,24,0.6
COc1ccc(C)cc1-n1c(C)cc(C=O)c1C,8,-26,-10,7,-5,0.5
CCOC(=O)c1c(-c2ccccc2)n(C)c2ccc(O)cc12,-8,-7,-11,-5,3,1.4
CCN(C(=S)Nc1cccnc1)c1ccccc1,9,-16,-6,-2,-3,0.1
CCN1CCN(Cc2c(O)ccc3c2O/C(=C\C=C\c2ccccc2OC)C3=O)CC1,-6,-7,-44,-6,3,11
COC(=O)CCSCC(=O)Nc1nnc(C)s1,3,-2,-5,-4,9,0.2
CC(C)(C)c1cc(C(=O)NCc2ccco2)ccn1,8,4,-6,1,-10,-0.4
CCOc1ccc2nc(SCC(=O)N(CCOC)c3c(N)n(Cc4ccccc4)c(=O)[nH]c3=O)[nH]c2c1,7,-6,-24,0,6,0.4
Cc1nn(-c2ccccc2)c(-c2ccccc2[N+](=O)[O-])c1CC#N,9,-3,-1,nt,nt,-1.1
CCN1CCN(c2ncnc3scc(-c4ccc(C)cc4)c23)CC1,-13,?,?,-7,14,-0.3
COC(=O)c1cc(Br)c(=O)n(CCN2CCCC2)c1,0,-1,0,-20,-1,0.7
C/C(CC(=O)Nc1cc(C)ccn1)=N\NC(=O)c1cccc(C)c1,-19,17,-12,-30,-6,0.5
Cc1cc(N2C(=O)C(O)=C(C(=O)c3cc4ccccc4o3)C2c2ccc(Cl)cc2)no1 (stereo unspecified),6,0,1,-1,-4,-0.3
CCCCN(C(=O)CN1CC(C)OC(C)C1)c1c(N)n(CC(C)C)c(=O)[nH]c1=O (stereo unspecified),2,13,3,1,0,-0.1
N#CCc1ccc(NC(=O)c2ccc(S(=O)(=O)N3CCCC3)cc2)cc1,-7,-3,4,-9,-10,0.7
Cn1ccnc1SCC(=O)N1CCc2ccccc21,6,1,-18,7,1,0.3
Cc1cccc(C)c1NC(=S)NCCCN1CCCC1=O,5,8,-24,-2,-13,1.4
O=C(Nc1ccc2c(c1)OCCO2)C1CCCN(c2ncccn2)C1 (stereo unspecified),0,0,-4,-28,-2,-0.3
Cc1ccc(Cn2nnc3c(=O)[nH]c(C(=O)NCc4ccco4)nc32)cc1,-6,-4,-1,2,6,0.5
O=C1NCCN1c1ncc([N+](=O)[O-])s1,0,7,15,8,20,-0.3
CCCc1cc(=O)n2nc(N3CCC(C(=O)N4CCN(c5cccc(OC)c5)CC4)CC3)sc2n1,-23,-6,6,17,-5,0.6
COc1ccc(/C=C(/NC(=O)c2ccc(C)cc2)c2nc3ccccc3[nH]2)cc1OC,0,-2,-52,-8,7,50*
COc1cc(C(C(=O)NC2CCCCC2)N(Cc2ccco2)C(=O)c2cnccn2)cc(OC)c1OC (stereo unspecified),0,6,-2,16,-4,0.0
O=C(Nc1ccncc1)c1ccc(N2CCCC2=O)cc1,-20,1,-12,-20,4,0.8
COc1ccc(-c2cc(C(=O)Nc3cc(OC)c(OC)c(OC)c3)no2)cc1,3,3,1,4,3,3.1
COCC(C)n1c(SCC(=O)NC2CCCCC2)nc2ccccc2c1=O (stereo unspecified),-5,1,4,nt,10,-0.6
CC1CN(S(=O)(=O)c2ccc(C(=O)NCCCn3ccnc3)cc2)CC(C)O1 (stereo unspecified),2,11,-5,-8,30,0.9
COC(=O)C1(S(=O)(=O)c2cccc3nsnc23)CC1,0,-5,-8,-3,-6,-0.2

# One compound at a time, as listed above. Order of values: CtBP-E1A inh	Six1-Eya2 inh	D2 PAM	TRPV1 PAM	TRPML1 blocker	TRPML1 agonist
# Results for CCN1CCN(c2ncnc3scc(-c4ccc(C)cc4)c23)CC1 : -13	?	?	-7	14	-0.3
# Results for O=C(Nc1ccncc1)c1ccc(N2CCCC2=O)cc1 : -20	1	-12	-20	4	0.8
# Results for CN1CCN(c2ccc(-c3cccc4nccn34)cn2)CC1 : 1	-1	-8	nt	-5	0.5
